Screening results from PubChem.
RVFV N-RNA inh: blocks Rift Valley Fever Virus nucleoprotein binding to RNA | RVFV N-RNA binding, fluorescence polarization; stronger effect = lower value | 0.1% of 20,000 active | % bound, % (test concentration not listed) | P21700;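 active = between 0 and 58% in either replicate with normal brightness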;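 note: 100 nL library stock added to about 12 µL; 100% = protein and probe without compound and 0% = probe alone; numbers are from one replicate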
Target sequence (P21700 whole entry, looked up): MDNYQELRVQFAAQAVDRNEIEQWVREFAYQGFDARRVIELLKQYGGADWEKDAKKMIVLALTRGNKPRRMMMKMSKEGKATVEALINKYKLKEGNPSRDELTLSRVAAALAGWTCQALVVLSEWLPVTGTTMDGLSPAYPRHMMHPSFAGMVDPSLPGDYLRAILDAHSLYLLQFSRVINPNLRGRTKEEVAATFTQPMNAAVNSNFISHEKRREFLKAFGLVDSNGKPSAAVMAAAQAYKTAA
Active calls of the source: *; & = joins results of further samples. This is a subset, so the mix of outcomes need not match the whole.

CC(C)(C)C1CCc2c(sc3nc(-c4ccccc4)cn23)C1 (configuration not stated) was read as RVFV N-RNA inh 101.3.
For N#Cc1cnc(SCC(=O)N2CCCCC2)nc1N the results were RVFV N-RNA inh 108.7.
`COC(=O)C1=C(C)N(C(C)c2ccccc2)C(=O)C1` (configuration not stated) gave RVFV N-RNA inh 109.7.
Screening CC(C)S(=O)(=O)c1csc(C(=O)NN)c1-n1cccc1 returned RVFV N-RNA inh 96.5.
CC(C)c1cccc(NC(=O)CCc2n[nH]c(=O)[nH]c2=O)c1 was read as RVFV N-RNA inh 95.1.
For O=C1c2ccccc2C(=O)N1CSc1ncccn1 the results were RVFV N-RNA inh 93.4.
Nc1ccc(S(=O)(=O)N2CC(=O)NC(=O)C2)cc1 was read as RVFV N-RNA inh 87.1.
`O=C(NCCN1CCCCC1)Nc1ccccc1` gave RVFV N-RNA inh 109.3.
CCc1ccc(OC)c(S(=O)(=O)N2CCCCC2)c1 was read as RVFV N-RNA inh 104.3.
`N#CC(C#N)=Cc1ccc(Oc2ccccc2)nc1` gave RVFV N-RNA inh 93.3.
`CS(=O)(=NS(=O)(=O)c1cc(S(=O)(=O)c2ccccc2)cs1)c1ccccc1` (configuration not stated) gave RVFV N-RNA inh 97.7.
CCn1c(C)cc(/C=C2\C(=O)NC(=O)N(c3ccc(OC)cc3)C2=O)c1C was read as RVFV N-RNA inh 91.6.
Screening CCNc1nc(NCC)n2c(=S)[nH]nc2n1 returned RVFV N-RNA inh 100.4.
`CCC(C)NS(=O)(=O)c1ccc(F)c(OC)c1` (configuration not stated) gave RVFV N-RNA inh 106.5.
CCc1nnsc1C(=O)Nc1c(C(=O)Nc2ccccc2)oc2ccccc12 was read as RVFV N-RNA inh 98.8.
Screening COc1ccc(C(=O)Nc2nnc(C3=COCCO3)o2)cc1 returned RVFV N-RNA inh 92.7.
O=c1[nH]c2ccccc2s1 was read as RVFV N-RNA inh 92.2&107.4.
For O=C1c2ccccc2-c2nnc(-c3cccs3)cc21 the results were RVFV N-RNA inh 96.7.
COc1cccc2c1c(NC(=O)C1CCN(C(=O)OCc3ccccc3)CC1)nn2C was read as RVFV N-RNA inh 96.6.
For O=C(NCc1ccccc1)c1cccnc1NCc1ccccc1 the results were RVFV N-RNA inh 95.5.
For Brc1c(NC2=NCCN2)ccc2nccnc12 the results were RVFV N-RNA inh 95.4&90.7.
For CN(C)CCC=C1c2ccccc2CCc2ccccc21 the results were RVFV N-RNA inh 95.8&93.5.
CCN1C(=O)c2ccc(-c3nc4cc(Cl)ccc4o3)cc2C1=O was read as RVFV N-RNA inh 91.7.
Screening Cc1csc2nc(SCCC(=O)Nc3ccccc3)[nH]c(=O)c12 returned RVFV N-RNA inh 96.9.
`C=CCN1C(=O)C(CC(=O)Nc2ccc(Cl)cc2)NC1=S` (configuration not stated) gave RVFV N-RNA inh 99.0.
`CCn1c(=O)[nH]c2cc(Cl)c(Cl)cc21` gave RVFV N-RNA inh 96.3.
For O=C1c2ccccc2C(=O)N1CCN1CCN(Cc2ccccc2)CC1 the results were RVFV N-RNA inh 107.3.
`CCN(Cc1ccccc1)C(=O)Cc1ccccc1` gave RVFV N-RNA inh 95.0.
Screening CS(=O)(=O)c1ccc([C@@H](O)[C@@H](CF)NC(=O)C(Cl)Cl)cc1 returned RVFV N-RNA inh 99.3.
`O=C(CSc1nncc(=O)[nH]1)Nc1cccc(Cl)c1` gave RVFV N-RNA inh 92.0.
O=c1[nH][nH]c2nnc(-c3ccccc3)c(-c3ccccc3)c12 was read as RVFV N-RNA inh 98.2.
Screening O=C(Cc1ccccc1)N1CCN(c2ccc(N3CCCCC3)nn2)CC1 returned RVFV N-RNA inh 91.0.
`CC(=O)Nc1ccc(S(=O)(=O)NCC2CC3CCC2C3)cc1` (configuration not stated) gave RVFV N-RNA inh 99.4.
For Cc1cccc(N2C(N)=C(C#N)C(c3cc(C)ccc3C)C3=C2CCCC3=O)c1 (configuration not stated) the results were RVFV N-RNA inh 108.2.
Screening Cc1ccc(NC(=O)NC(=O)c2c(-c3snnc3C)noc2C)cc1 returned RVFV N-RNA inh 83.6.
`O=C(COc1ccc(/C=N/NS(=O)(=O)c2ccccc2)cc1)N1CCOCC1` gave RVFV N-RNA inh 110.6.
For CN1CCN(c2ccc(NC(=O)COc3ccc(Br)cc3)cc2)CC1 the results were RVFV N-RNA inh 94.0.
For CC/C(=N\NS(C)(=O)=O)c1ccccc1 the results were RVFV N-RNA inh 99.2.
`O=C(N/N=C/c1ccc([N+](=O)[O-])o1)c1cc([N+](=O)[O-])cc([N+](=O)[O-])c1O` gave RVFV N-RNA inh 102.9.
`Cc1nnc2ccc(-c3ccc(NS(=O)(=O)c4ccc5c(c4)OCCO5)cc3)nn12` gave RVFV N-RNA inh 97.1.
For O=C(NCCC1=CCCCC1)c1ccc2c(c1)OCCO2 the results were RVFV N-RNA inh 112.2.
`Nc1ccc2c(c1)C(=O)N(CC1CCCO1)C2=O` (configuration not stated) gave RVFV N-RNA inh 97.7.
Screening CC1CCCCN1C(=O)c1cc2ccccc2cc1O (configuration not stated) returned RVFV N-RNA inh 96.9.
`Cc1nnc(-c2ccccn2)[nH]c1=O` gave RVFV N-RNA inh 99.9.
COc1nc(Nc2ccc(C)cc2)nc(N2CCC(C)CC2)n1 was read as RVFV N-RNA inh 93.1.
CS/C(=N/S(=O)(=O)c1ccccc1)N1CCN(c2c(C#N)cccc2C#N)CC1 was read as RVFV N-RNA inh 105.8.
Screening CC(C)CC(=O)N1CCN(Cc2ccccc2)CC1 returned RVFV N-RNA inh 111.0.
For CN(c1ccccc1)S(=O)(=O)c1ccc2c3c(cccc13)C(=O)N2 the results were RVFV N-RNA inh 90.3.
CCC(C)NC(=O)c1ccc2ccccc2c1 (configuration not stated) was read as RVFV N-RNA inh 92.9.
CC(=O)O/N=C1\C(c2c(O)[nH]c3cc(Br)ccc23)=Nc2ccccc21 was read as RVFV N-RNA inh 106.0.

2 entries picked at random from those above, as already listed:
For CN(c1ccccc1)S(=O)(=O)c1ccc2c3c(cccc13)C(=O)N2 the results were RVFV N-RNA inh 90.3.
CC(=O)O/N=C1\C(c2c(O)[nH]c3cc(Br)ccc23)=Nc2ccccc21 was read as RVFV N-RNA inh 106.0.

Next part.
`CC1C(=O)CC(c2ccccc2)OC1c1ccccc1` (configuration not stated) gave RVFV N-RNA inh 90.0.
For Cc1ccccc1NC(=O)C1CCCCC1 the results were RVFV N-RNA inh 97.9.
For COc1cccc(NC(=O)/C=C/c2ccco2)c1 the results were RVFV N-RNA inh 99.1.
For CSc1nc(N/C=C(\C#N)C(=O)c2cccs2)n2nc(C)cc2n1 the results were RVFV N-RNA inh 109.6.
For CC1(C)C2CC=C(CN3CCC(O)CC3)C1C2 (configuration not stated) the results were RVFV N-RNA inh 96.1.
For O=S(=O)(NCc1csc(-c2cccs2)n1)c1cccs1 the results were RVFV N-RNA inh 88.3.
`CNC(=S)N/N=C/c1cccnc1` gave RVFV N-RNA inh 96.3.
CCOC(=O)c1ccc(CC(=O)c2cc(CC)c(O)cc2O)o1 was read as RVFV N-RNA inh 105.5.
N#Cc1ccc(-c2cccc(C(F)(F)F)c2)o1 was read as RVFV N-RNA inh 94.4.
Cc1onc(-c2c(Cl)cccc2Cl)c1C1=NCCO1 was read as RVFV N-RNA inh 95.2.
`Cc1cc(C)nc(NS(=O)(=O)c2ccc(NC(=O)c3ccc(N4C(=O)CCC4=O)cc3)cc2)n1` gave RVFV N-RNA inh 94.6.
For CCOC(=O)Cn1c2ccc(F)cc2c2nc3ccccc3nc21 the results were RVFV N-RNA inh 100.1.
Screening CS(=O)(=O)NCCn1ccc2ccccc21 returned RVFV N-RNA inh 97.2.
O=C(NCCN1CCN(Cc2ccccc2)CC1)Nc1ccc(OCc2ccccc2)cc1 was read as RVFV N-RNA inh 95.4.
For Cc1c(C(=O)NC(=S)Nc2ccc(C(=O)OC(C)C)cc2)oc2ccccc12 the results were RVFV N-RNA inh 95.2.
Screening O=c1[nH]cc(S(=O)(=O)N2CCC3(CC2)OCCO3)c(=O)[nH]1 returned RVFV N-RNA inh 90.3.
For CN1C(=O)/C(=C/c2ccc(N3CCCC3)c(F)c2)C(=O)NC1=S the results were RVFV N-RNA inh 89.7.
Screening Cc1ccc(NC(=O)c2snnc2C)cc1 returned RVFV N-RNA inh 97.7.
For C=C/C=C\CC1=C[C@@H](OC(=O)[C@@H]2[C@@H](C=C(C)C)C2(C)C)CC1=O the results were RVFV N-RNA inh 100.8.
Screening COc1cc(-c2nnc(NC(=O)CS(=O)(=O)c3ccc(Cl)cc3)o2)cc(OC)c1OC returned RVFV N-RNA inh 85.4.

Of the compounds above, these have a thiophene ring, fused or not.
Screening CC(C)S(=O)(=O)c1csc(C(=O)NN)c1-n1cccc1 returned RVFV N-RNA inh 96.5.
`CS(=O)(=NS(=O)(=O)c1cc(S(=O)(=O)c2ccccc2)cs1)c1ccccc1` (configuration not stated) gave RVFV N-RNA inh 97.7.
For O=C1c2ccccc2-c2nnc(-c3cccs3)cc21 the results were RVFV N-RNA inh 96.7.
Screening Cc1csc2nc(SCCC(=O)Nc3ccccc3)[nH]c(=O)c12 returned RVFV N-RNA inh 96.9.
For CSc1nc(N/C=C(\C#N)C(=O)c2cccs2)n2nc(C)cc2n1 the results were RVFV N-RNA inh 109.6.
For O=S(=O)(NCc1csc(-c2cccs2)n1)c1cccs1 the results were RVFV N-RNA inh 88.3.

Later entries.
Cc1ccc(Oc2ncccc2NS(=O)(=O)c2cn(C)c(C)n2)c2c1CCC2 was read as RVFV N-RNA inh 98.0.
`O=C(Cc1ccccc1)NCC(=O)N1CCCCC1` gave RVFV N-RNA inh 106.4.
Screening C[C@@]1(C2CCCC2)Cc2cc(OCC(=O)O)c(Cl)c(Cl)c2C1=O returned RVFV N-RNA inh 92.3.
O=C1CC(N2CCN(Cc3ccccc3)CC2)C(=O)N1 (configuration not stated) was read as RVFV N-RNA inh 96.2.
`O=C(NCCC1CCCCC1)N1CCN(c2ccccc2)CC1` gave RVFV N-RNA inh 86.6.
O=S(=O)(c1ccc(N2CCCCC2)cc1)C(F)(F)F was read as RVFV N-RNA inh 84.3.
Screening N#C/C(=C\c1cnc2ccccc2n1)S(=O)(=O)c1ccccc1 returned RVFV N-RNA inh 93.6.
CCS(=O)(=O)Nc1ccc(C(=O)NC2CC2)cc1 was read as RVFV N-RNA inh 100.5.
CSc1nc2nc(C)cc(C)n2n1 was read as RVFV N-RNA inh 94.8.
Screening Nc1nc(Sc2nc3cc(Cl)ccc3s2)n[nH]1 returned RVFV N-RNA inh 94.9.
NC(=O)CC1C(=O)N(c2ccc(F)cc2)C(=O)N1NC(=O)CCc1ccccc1 (configuration not stated) was read as RVFV N-RNA inh 92.4.
Screening C=CC1=C(C(=O)O)N2C(=O)[C@@H](NC(=O)C(=NOCC(=O)O)c3csc(N)n3)[C@H]2SC1 returned RVFV N-RNA inh 96.4.
For COC(=O)C1=C(C)NC(=O)/C1=C\c1ccc(Cl)cc1 the results were RVFV N-RNA inh 87.6.
For N#Cc1cnc2cnc(NCc3cccnc3)cc2c1Nc1ccc(F)c(Cl)c1 the results were RVFV N-RNA inh 100.5.
Cc1ccc2occ(CN3CCSCC3)c(=O)c2c1 was read as RVFV N-RNA inh 100.0.
Screening Cc1cccc(NC(=O)CSc2nc3c(oc4ccccc43)c(=O)n2C2CCCC2)c1C returned RVFV N-RNA inh 99.2.
Screening Cc1[nH]cnc1C(=O)N/N=C/c1ccncc1 returned RVFV N-RNA inh 98.3.
Screening O=C(Nc1ccc(-c2nc3cc(Cl)cc(Cl)c3o2)cc1)c1ccc2c(c1)OCCO2 returned RVFV N-RNA inh 87.0.
O=C(Cn1cnc2c(nnn2-c2ccccc2)c1=O)NC1CCCC1 was read as RVFV N-RNA inh 87.8.
CCN(CC)S(=O)(=O)c1ccc2nc(SC)sc2c1 was read as RVFV N-RNA inh 99.7.
Screening NN=C(c1ccccc1)c1ccccc1 returned RVFV N-RNA inh 90.3.
Screening Cc1cc(C(=O)Nc2ccc3c(c2)OCCO3)cs1 returned RVFV N-RNA inh 91.7.
For OC(c1ccccc1)C(O)c1ccccc1 (configuration not stated) the results were RVFV N-RNA inh 88.9.
Screening CC(C)(C)c1ccc(C(=O)Nc2c3c(nn2C(C)(C)C)CSC3)cc1 returned RVFV N-RNA inh 86.5.
Screening O=c1c(-c2nnnn2-c2ccc(Cl)cc2)c[nH]c2ccccc12 returned RVFV N-RNA inh 92.4.
For CC1Cc2ccccc2N1C(=S)Nc1ccc(S(N)(=O)=O)cc1 (configuration not stated) the results were RVFV N-RNA inh 101.3.
CSc1ccccc1C(=O)NCc1ccc2c(c1)OCO2 was read as RVFV N-RNA inh 94.6.
O=C(O)CCCN1C(=O)/C(=C/c2ccc(-c3ccccc3F)o2)SC1=S was read as RVFV N-RNA inh 93.7.
Cn1nc(C(C)(C)C)c(NC(=O)c2sccc2Cl)c1C(C)(C)C was read as RVFV N-RNA inh 109.7.
For O=C(CSc1ncccn1)NCCc1ccccc1 the results were RVFV N-RNA inh 99.6.

An excerpt from above in order of molar mass, lowest first:
O=c1[nH]c2ccccc2s1 was read as RVFV N-RNA inh 92.2&107.4.
Screening NN=C(c1ccccc1)c1ccccc1 returned RVFV N-RNA inh 90.3.
`C=CCN1C(=O)C(CC(=O)Nc2ccc(Cl)cc2)NC1=S` (configuration not stated) gave RVFV N-RNA inh 99.0.

The list continues.
For O=C(c1ccncc1)N1C(=O)c2cccc3cccc1c23 the results were RVFV N-RNA inh 96.6.
`CCOC(=O)c1cnc2c(c(C)nn2C)c1N1CCC(n2cccc2)CC1` gave RVFV N-RNA inh 85.8.
For CCc1nnc2sc(-c3ccc(NC(=O)c4cccnc4)cc3)nn12 the results were RVFV N-RNA inh 103.3.
COC(=O)c1ccccc1NC(=O)c1cccc(C)c1 was read as RVFV N-RNA inh 97.5.
NNC(=O)c1n[nH]c2c1CCCC2 was read as RVFV N-RNA inh 94.6.
For CN(C)C(=O)CSc1nnnn1-c1ccccc1 the results were RVFV N-RNA inh 94.3.
COc1ccccc1NC(=O)c1ccc(C(=O)c2ccccc2)o1 was read as RVFV N-RNA inh 102.6.
`CCC1(C)CC(=O)NC1=O` (configuration not stated) gave RVFV N-RNA inh 93.8.
`CCOC(=O)CS(=O)(=O)c1ccc2ccccc2c1` gave RVFV N-RNA inh 102.3.
`Oc1cccc2ccc(Nc3ccc4cccc(O)c4n3)nc12` gave RVFV N-RNA inh 98.1.
Screening O=C1N=C(N2CCCC2)S/C1=C/c1ccc(-c2ccccc2)o1 returned RVFV N-RNA inh 95.3.
